Compound activity from PubChem BioAssay.
Rango complex inh: Rango-importin beta binding inhibition; Q14974; Rango CFP/YFP FRET sensor + importin beta, 45 min; Potency, µM (doses to about 92.2 µM), inactives show at the highest dose inhibition of complex formation; 0.031% of 340,000 active; active = rising FRET ratio curve, often small or poorly fitted; inconclusive = mostly compound fluorescence or quenching in the first reads; inactive = flat curves in all reads;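 also: potency is read from the fitted curve at half-maximal effect; 0% = DMSO wells and 100% = buffer wells lacking importin beta; nearly all actives have a fitted effect of over 15% in size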
Target sequence (Q14974 whole entry, looked up): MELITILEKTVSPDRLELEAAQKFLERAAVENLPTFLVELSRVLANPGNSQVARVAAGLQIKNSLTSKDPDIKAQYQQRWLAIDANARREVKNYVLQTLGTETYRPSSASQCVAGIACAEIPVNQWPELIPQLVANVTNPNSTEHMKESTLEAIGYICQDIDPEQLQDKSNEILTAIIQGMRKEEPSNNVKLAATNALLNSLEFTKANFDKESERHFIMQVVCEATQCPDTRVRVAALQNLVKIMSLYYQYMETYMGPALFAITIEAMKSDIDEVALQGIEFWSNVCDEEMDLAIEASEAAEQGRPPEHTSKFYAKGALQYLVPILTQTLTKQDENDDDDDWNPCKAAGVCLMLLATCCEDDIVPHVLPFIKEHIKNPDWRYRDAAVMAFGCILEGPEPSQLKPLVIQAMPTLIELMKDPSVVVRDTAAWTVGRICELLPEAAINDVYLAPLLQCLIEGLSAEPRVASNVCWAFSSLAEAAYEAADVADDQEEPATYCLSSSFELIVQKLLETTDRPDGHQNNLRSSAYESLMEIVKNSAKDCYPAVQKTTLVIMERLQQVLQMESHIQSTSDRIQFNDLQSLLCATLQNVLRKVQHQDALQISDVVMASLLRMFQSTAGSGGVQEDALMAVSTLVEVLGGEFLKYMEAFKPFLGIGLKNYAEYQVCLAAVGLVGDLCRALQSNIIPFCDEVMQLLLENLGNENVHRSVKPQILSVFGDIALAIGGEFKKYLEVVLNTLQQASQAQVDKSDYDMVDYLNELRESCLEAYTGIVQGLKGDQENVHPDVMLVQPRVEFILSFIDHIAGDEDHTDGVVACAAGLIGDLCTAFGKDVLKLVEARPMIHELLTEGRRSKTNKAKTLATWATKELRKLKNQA
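Inhibition scored from the CFP 486 nm/YFP 530 nm FRET ratio 45 min after adding 0.125 microM importin beta to 50 nM Rango biosensor preincubated 5 min with compound (room temperature, PBS with DTT, Tween-20, BSA). No-importin wells as positive control.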
miR-21 FLuc: raises the signal of a miR-21 reporter. AID 2288. HeLa miR-21 FLuc reporter, luciferase, 48 h. Potency, µM (doses to about 38.3 µM), without a hit: at the highest dose reporter change, positive = more light. 340,000 tested, under 10 active; active = well fitted rising curve with a large enough effect; inconclusive = small, poorly fitted or top-dose-only effect; inactive = no such curve, though single readings can be large or run the other way;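 also: % of control where 0% means no effect; miR-21 action dims this reporter so a rising signal means less miR-21 action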
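Using DMEM plus 10% FBS, HeLa miR-21-FLuc cells are incubated with test compounds (final up to about 40uM) for 48 hours; firefly luciferase signal is then imaged following reagent-mediated lysis.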
Rango release inh: prevents RanGTP from dissociating the Rango-importin beta complex. O95149+P62826. Biochemical FRET Rango-importin beta, RanGTP-induced dissociation. Potency, µM (series often up to 46.1 µM), inactives show top-dose activity change, negative = inhibition. 0.071% of 340,000 active. AID 540253; active means falling FRET ratio curve, often poorly fitted, with flat reads before Ran was added; inconclusive means other falling curves, or compound fluorescence or quenching; inactive means flat or rising ratio curve;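 also: potency is read from the fitted curve at half-maximal effect; % of control where 0% means no effect; nearly all actives have a fitted effect of over 45% in size; -100% = wells without RanGTP and RCC1; the record marks most hits as doubtful in a second field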
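Compounds preincubate 5 min with complex of recombinant Rango and importin beta in PBS with 1 mM DTT. Ran (0.6 uM) loaded with 2 mM GTP plus 0.2 uM RCC1 starts dissociation; FRET is recorded 45 min later.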
GLA inh pH 4.5: blocks human alpha-galactosidase A at pH 4.5. purified enzyme, 4-MU-alpha-Gal fluorescence, pH 4.5. activity change, negative = inhibition, % at 105 µM. 230,000 tested, under 10 active. AID 1467; inconclusive = small, poorly fitted or top-dose-only inhibition, or a rising curve; inactive = flat fitted curve, though single readings scatter; no compound was filed as active;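 also: 0% = full activity with enzyme and -100% = basal without enzyme; dose as in the result columns while the protocol names 77 µM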
* marks the source's active call; other numbers are inactive results; ? = inconclusive; . = not tested or not shown; & = joins results of further samples.

Rango complex inh	mol	miR-21 FLuc	Rango release inh	GLA inh pH 4.5
0.1%	Cc1ccc(C)c(NC(=O)CSc2nnc(CCCCCNC(=O)OC(C)(C)C)o2)c1	8.4%	-2.0%	-3.8
-1.7%	CCCC(=O)NCCCc1nc2ccccc2n1C(C)C	-2.4%	8.7%	-2.4
-3.8%	O=C(Nc1ccccc1Cl)N1CCN(c2ccc3nnc(-c4ccccc4)n3n2)CC1	0.1%	0.3%	6.1
-0.9%	COc1ccc(NC(=O)CCN2CCCCCC2)c(OC)c1	-2.1%	-3.5%	6.7
0.7%	CCCCOc1ccc(CNn2c(C)nc3ccccc3c2=O)cc1	-0.5%	12.2%	2.5
?	CCS(=O)(=O)Nc1ccc(C2=NN(C(=S)Nc3ccccc3)C(c3ccco3)C2)cc1 (configuration not stated)	-5.1%	-3.1%	10.0
0.4%	CC(=O)Nc1ccccc1OCC(=O)NC(C)c1ccc(F)cc1 (configuration not stated)	-3.1%	-1.7%	6.7
-1.3%	O=C(NC(=S)NCCc1ccccc1)c1ccco1	-42.5%	34.9%	1.0
4.3%	O=C(Nc1ccccc1)Nc1ccc(F)c([N+](=O)[O-])c1	17.4%	0.4%	-2.6
?	O=S(=O)(Nc1ccncc1)c1ccccc1	0.9%	10.6%	1.5
-1.4%	COc1cccc(C(=O)OCC(=O)Nc2cc(C)on2)c1OC	.	1.4%	.
-4.1%	CCSc1ccc([C@@H]2[C@@H]3C(=O)N(CC)C(=O)[C@@H]3[C@]3(C(=O)OC)CCCCN23)cc1	.	-17.5%	.
-2.2%	CC1(C)N=C(/C=N/O)C=[N+]1[O-]	-3.3%	-14.8%	-0.6
-4.9%	c1ccc(-c2cnc(-c3ccccc3)nc2)cc1	-56.0%	2.5%	7.9
-0.5%	CCOc1cccc(/C(O)=C2/C(=O)C(=O)N(CCN3CCOCC3)C2c2cccnc2)c1 (configuration not stated)	-1.5%	-2.6%	3.7
0.6%	O=C(NCc1ccccc1)c1ccccc1OCC(=O)N1CCCCC1	6.8%	-11.8%	8.6
-4.2%	CC(NC(=O)c1cccc(OC2CCN(C(=O)C3CC3)CC2)c1)c1ccc(F)cc1 (configuration not stated)	4.3%	-9.3%	.
0.4%	Cc1noc(C)c1S(=O)(=O)N1CCC(C(=O)N2CCC(N3CCCCC3)CC2)CC1	2.6%	-16.4%	3.1
-2.1%	COc1ccccc1C(=O)COC(=O)CNC(=O)c1ccc(Br)o1	.	-24.5%	.
-0.1%	CCC(=O)Nc1cccc(C2=NOC3(C2)C[C@@H](C(N)=O)N(C(=O)COc2ccc(Cl)cc2)C3)c1 (some centres not stated)	7.8%	28.9%	-0.4
5.8%	O=C(CN1c2ccccc2Sc2ccccc21)N/N=C/c1ccc([N+](=O)[O-])cc1	9.6%	-7.9%	2.9
3.0%	Cc1ccc(/C=N\NC(=O)C2COc3cc4ccccc4cc3O2)o1 (configuration not stated)	-5.3%	-11.3%	8.4
2.5%	Cc1ccc(SCCOCCN2CC(C)OC(C)C2)cc1 (configuration not stated)	-16.7%	5.4%	1.2
?	CCc1ccccc1NC(=O)C1=CC(c2ccc(OC)c(OC)c2)=NS(=O)(=O)N1C	5.4%&-16.2%	5.0%	.
-2.3%	CCN(CC)S(=O)(=O)c1cc(C(=O)Oc2cccc(-c3cnc4ccccc4n3)c2)ccc1OC	-13.2%	2.2%	-17.0
-2.0%	Cc1cccc(NC(=O)Cn2nnc(-c3cccs3)n2)c1C	-6.8%	2.2%	-1.1
-3.1%	COc1ccccc1NC(=O)Nc1nc(CC(=O)Nc2ccc(F)cc2)cs1	.	8.1%	.
0.3%	CC(=O)N1CCN(c2ccc(NC(=O)c3cccc([N+](=O)[O-])c3)cc2)CC1	-7.2%	-21.9%	.
-0.9%	CCOC(=O)N1CCN(c2ccc(F)cc2[N+](=O)[O-])CC1	-17.1%	2.8%	-4.6
-2.5%	CC(=O)c1c(C)[nH]c(C(=O)Nc2ccc(C)cn2)c1C	?	-1.2%	6.5

The last seven records of the section above come first, to join the parts.
Rango complex inh	mol	miR-21 FLuc	Rango release inh	GLA inh pH 4.5
?	CCc1ccccc1NC(=O)C1=CC(c2ccc(OC)c(OC)c2)=NS(=O)(=O)N1C	5.4%&-16.2%	5.0%	.
-2.3%	CCN(CC)S(=O)(=O)c1cc(C(=O)Oc2cccc(-c3cnc4ccccc4n3)c2)ccc1OC	-13.2%	2.2%	-17.0
-2.0%	Cc1cccc(NC(=O)Cn2nnc(-c3cccs3)n2)c1C	-6.8%	2.2%	-1.1
-3.1%	COc1ccccc1NC(=O)Nc1nc(CC(=O)Nc2ccc(F)cc2)cs1	.	8.1%	.
0.3%	CC(=O)N1CCN(c2ccc(NC(=O)c3cccc([N+](=O)[O-])c3)cc2)CC1	-7.2%	-21.9%	.
-0.9%	CCOC(=O)N1CCN(c2ccc(F)cc2[N+](=O)[O-])CC1	-17.1%	2.8%	-4.6
-2.5%	CC(=O)c1c(C)[nH]c(C(=O)Nc2ccc(C)cn2)c1C	?	-1.2%	6.5
-1.4%	Cn1ncc2c(NCc3ccccc3)nc(NCCCO)nc21	-2.3%	-2.0%	.
0.1%	Nc1cc(N)nc(SCC(=O)NCC2CCCO2)n1 (configuration not stated)	-2.3%	0.4%	-16.1
1.2%	Cc1nn(C)cc1CNC(=O)c1cccc(Br)c1	-14.0%	9.7%	5.4
-0.4%	COC(=O)[C@@H]1CCCN1C(=O)c1cc(COc2cccc3cccnc23)on1	0.5%	-1.9%	.
-1.0%	Cc1ccccc1NC(=O)CCN1CCCCCC1	.	-13.9%	.
0.0%	COc1ccc(N2CCN(c3ncnc4scc(-c5ccc(F)cc5)c34)CC2)cc1	22.1%	5.2%	.
-0.6%	COc1cccc(OC)c1C(=O)OCC(=O)NCC(C)C	0.5%	-19.6%	10.6
-7.6%	O=C(/C=C/N1CCOCC1)c1ccc(-c2ccccc2)cc1	-27.6%	-18.2%	1.7
-0.7%	O=C1c2cccnc2C(=O)N1Cc1ccc2c(c1)OCO2	-3.9%	10.8%	12.1
-1.4%	CCCn1nnnc1SCC(=O)N1CCN(C(=O)c2ccco2)CC1	-0.6%	2.6%	1.1
-3.8%	CCOC(=O)c1[nH]c(C)c(/C(O)=C2\C(=O)C(=O)N(CCN(C)C)C2c2ccncc2)c1C (configuration not stated)	-1.2%	29.3%	1.1
-1.2%	CC(=O)c1cccc(NC(=O)C2CC(c3ccc(F)cc3)=NO2)c1 (configuration not stated)	-4.6%	-1.8%	1.2
6.8%	Cc1ccc(-c2noc(CC(c3ccccc3)c3ccccc3)n2)cc1	-4.1%	-0.4%	-4.0
-2.1%	Cc1ccc(C2NC(=O)NC(O)(C(F)(F)F)C2C(=O)c2cccs2)o1 (configuration not stated)	-2.4%	21.0%	-9.6
2.9%	Cc1ccc(C23CCC(=O)N2C(C(=O)O)CS3)c(C)c1 (configuration not stated)	1.1%	-11.1%	.
2.6%	O=[N+]([O-])c1ccc(S(=O)(=O)NCC(c2ccco2)N2CCc3ccccc3C2)cc1 (configuration not stated)	.	11.1%	.
-6.3%	COC(=O)c1cc(CSc2nnc(NC3CCCCC3)s2)oc1C	8.3%	-3.4%	-5.1
-0.5%	CC(C)(C)C(=O)Nc1nnc(COc2ccc(Cl)cc2)s1	-28.4%	-6.7%	-4.3
-1.3%	COC(=O)CCC(=O)Nc1sc(C)c(C)c1C(N)=O	1.1%	41.3%	0.6
0.8%	Cc1nn(-c2ccccc2)c2c1C(c1ccc(Cl)cc1)N(c1ccccc1)C(=O)N2 (configuration not stated)	-4.3%	2.7%	3.2
8.5%	CCCCn1c(N)c(N(CCOC)C(=O)COC(=O)c2ccccc2OCC)c(=O)[nH]c1=O	-4.9%	4.9%	.
-2.7%	CC(=O)N/C(=C\c1ccc(F)cc1)C(=O)NC(Cc1ccccc1)C(=O)O (configuration not stated)	-5.7%	15.0%	-11.2
-0.2%	O=C1CCCC2=C1C(c1ccc(OS(=O)(=O)c3ccc(Cl)cc3)cc1)C1=C(CCCC1=O)O2	-3.4%	-10.0%	4.2
-3.3%	Cc1noc(C)c1CSc1nnc2n(-c3ccccc3)c(=O)c3ccccc3n12	.	-0.1%	.
1.3%	COc1ccc(C(=O)CSc2ncnc3nc[nH]c23)cc1	-8.8%	0.1%	0.7
-2.5%	Cc1ccc(CC(=O)NCCCc2ccccc2)cc1	-10.6%	3.9%	5.8
-0.8%	COc1cccc(NC(=O)N2CCC(n3nnc4ccccc43)CC2)c1	14.8%	-15.1%	-3.5
1.8%	CCc1cccc(CC)c1NC(=O)NC1CCCCC1	-2.1%	4.4%	-3.2
-1.1%	O=C(COC(=O)c1n[nH]c2ccccc12)Nc1ccccc1Br	.	-8.3%	.
5.2%	Cc1ccc(/C=N/NC(=O)c2cccs2)cc1[N+](=O)[O-]	-66.5%	24.1%	-2.6

Sorted by heavy-atom count (high to low): six of the compounds above.
Rango complex inh	mol	miR-21 FLuc	Rango release inh	GLA inh pH 4.5
-0.2%	O=C1CCCC2=C1C(c1ccc(OS(=O)(=O)c3ccc(Cl)cc3)cc1)C1=C(CCCC1=O)O2	-3.4%	-10.0%	4.2
-0.4%	COC(=O)[C@@H]1CCCN1C(=O)c1cc(COc2cccc3cccnc23)on1	0.5%	-1.9%	.
-1.4%	CCCn1nnnc1SCC(=O)N1CCN(C(=O)c2ccco2)CC1	-0.6%	2.6%	1.1
1.3%	COc1ccc(C(=O)CSc2ncnc3nc[nH]c23)cc1	-8.8%	0.1%	0.7
1.8%	CCc1cccc(CC)c1NC(=O)NC1CCCCC1	-2.1%	4.4%	-3.2
-1.0%	Cc1ccccc1NC(=O)CCN1CCCCCC1	.	-13.9%	.

Continuation.
Rango complex inh	mol	miR-21 FLuc	Rango release inh	GLA inh pH 4.5
9.8%	CC(C)Cc1nnc(NC(=O)CCC(=O)NC2CCCCCCC2)s1	3.3%	0.0%	.
-3.8%	COc1ccc(C(=O)C2CCCN(C(=O)c3ccc(F)cc3)C2)cc1OC (configuration not stated)	4.0%	-5.7%	.
1.0%	CCN(CC)C(=O)C(=O)c1cccn1-c1cccc(OC)c1C#N	3.7%	5.5%	2.1
1.2%	Cc1c(C(=O)NCC2CCCO2)oc2c(Cl)cccc12 (configuration not stated)	.	26.4%	.
5.2%	O=C(NC1CCCC1)C1CCC(CNS(=O)(=O)c2ccccc2)CC1 (configuration not stated)	-0.5%	26.2%	.
-0.8%	Cc1nnc(SCC(=O)N/N=C/c2cc(Cl)c(O)c(Cl)c2)s1	-3.9%	9.6%	7.4
0.5%	O=C(O)C1=C[C@@H](C2CC2)C[C@@H](OCCCCO)O1	.	3.9%	.
?	CCC(=O)Nc1nn(C)c2nc3c(C)cccc3cc12	-8.4%	?	3.3
-1.0%	CC(C)(C)NC(=S)N/N=C/c1cc(Br)c(O)c(Br)c1	-27.1%	0.1%	-2.4
-0.5%	CC(=O)N(Cc1cc(=O)[nH]c2ccccc12)c1ccc(C)cc1C	-15.1%	8.3%	.
-2.6%	NC(=O)CN1C(=O)C(O)(CC(=O)c2ccccc2O)c2ccccc21 (configuration not stated)	-6.4%	-13.1%	-9.5

Random excerpt: 3 compounds from above.
Rango complex inh	mol	miR-21 FLuc	Rango release inh	GLA inh pH 4.5
-1.0%	CC(C)(C)NC(=S)N/N=C/c1cc(Br)c(O)c(Br)c1	-27.1%	0.1%	-2.4
-2.6%	NC(=O)CN1C(=O)C(O)(CC(=O)c2ccccc2O)c2ccccc21 (configuration not stated)	-6.4%	-13.1%	-9.5
0.5%	O=C(O)C1=C[C@@H](C2CC2)C[C@@H](OCCCCO)O1	.	3.9%	.

These rows are one share of the data, so the mix of outcomes need not match the whole.
